gsp antagonist = qHTS for Antagonists of gsp, the Etiologic Mutation Responsible for Fibrous Dysplasia/McCune-Albright Syndrome: qHTS | gsp-mutant cells, cAMP HTRF, 30 min; control for the full effect not named in the record | 0.4% of 340,000 active | Potency, µM (top dose mostly 76.9 µM), inactives show at the top dose activity change, negative = inhibition, most hits filed as inhibitors; active = falling curve of any shape with a large fitted effect; inconclusive = falling curve, mostly with a smaller effect; inactive = flat or rising curve; cell line not stated here;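 also: intracellular cAMP measured with PDE inhibitor Ro 20-1724 present during compound exposure; potency is read from the fitted curve at half-maximal effect; % is scaled to controls: 0 for no effect and ±100 for the full control effect; nearly all actives have a fitted effect of over 65% in size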
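G418-selected cells were plated in DMEM/10% FBS for 16-24 h at 37C, then treated with compounds plus the PDE inhibitor […] (300 uM solution added) for 30 min at 37C. Intracellular cAMP was measured by HTRF after 30 min lysis at room temperature.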
TRPV1 potentiator = HTS Assay for Compounds that Act as Potentiators of the Vanilloid Receptor 1; Transient receptor potential cation channel subfamily V member 1 (Homo sapiens), Q8NER1; TRPV1-expressing cells, Fluo-8 calcium influx, capsaicin EC20 potentiation; host cell line not named in the record; control for the full effect not named in the record; potentiation, % at 8.33 µM; 0.02% of 320,000 active; AID 540277, 2011; active means potentiation above 80%; inconclusive means 30% to 80%; inactive means below 30%; also: 0% is about no effect
Target sequence (Q8NER1 whole entry, looked up): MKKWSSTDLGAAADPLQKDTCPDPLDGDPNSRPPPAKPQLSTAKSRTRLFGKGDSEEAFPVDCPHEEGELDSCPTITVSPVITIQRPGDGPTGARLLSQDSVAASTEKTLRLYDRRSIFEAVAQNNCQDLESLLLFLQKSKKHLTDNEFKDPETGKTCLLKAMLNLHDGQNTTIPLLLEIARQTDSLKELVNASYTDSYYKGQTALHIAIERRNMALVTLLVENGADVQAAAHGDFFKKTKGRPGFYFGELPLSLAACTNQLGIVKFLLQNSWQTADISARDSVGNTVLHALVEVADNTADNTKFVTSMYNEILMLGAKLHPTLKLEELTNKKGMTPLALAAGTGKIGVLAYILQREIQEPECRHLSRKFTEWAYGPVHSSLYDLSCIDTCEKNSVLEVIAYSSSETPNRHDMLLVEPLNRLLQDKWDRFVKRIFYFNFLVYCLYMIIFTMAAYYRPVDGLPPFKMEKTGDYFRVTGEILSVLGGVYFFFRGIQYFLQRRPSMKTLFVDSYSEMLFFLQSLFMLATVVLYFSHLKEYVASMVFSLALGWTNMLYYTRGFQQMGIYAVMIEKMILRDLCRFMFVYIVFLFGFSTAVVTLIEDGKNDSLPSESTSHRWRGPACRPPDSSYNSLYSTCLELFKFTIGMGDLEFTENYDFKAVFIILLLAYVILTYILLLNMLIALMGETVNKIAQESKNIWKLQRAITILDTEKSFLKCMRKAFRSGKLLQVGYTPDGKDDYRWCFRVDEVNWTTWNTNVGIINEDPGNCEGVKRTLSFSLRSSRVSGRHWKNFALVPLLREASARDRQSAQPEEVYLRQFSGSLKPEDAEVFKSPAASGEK
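Cells expressing TRPV1 were dye-loaded with Fluo-8 and read kinetically: 10 s baseline, 3 min after compound (agonist portion), then 2 min after EC20 capsaicin (allosteric enhancer portion). Calcium-bound dye fluorescence at 480/520 nm.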
Menin MLL FP FL = qHTS Assay for Inhibitors Targeting the Menin-MLL Interaction in MLL Related Leukemias: Competition With Fluorescein Labeled MLL-derived Peptide. Fluorescence polarization, fluorescein-MLL peptide displacement from menin. FP activity change, % at 61.4 µM. 290,000 tested, under 10 active. AID 1766, 2009; inconclusive = falling polarisation curve, or a change in total fluorescence; inactive = total fluorescence flat and polarisation flat or rising; no compound was filed as active; the % refers to the polarisation; negative = inhibition;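 also: % of control where 0% means no effect; inhibitors lower the polarisation; unlabelled MLL peptide was the positive control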
Sfp inh = qHTS Assay for Inhibitors of Bacillus subtilis Sfp phosphopantetheinyl transferase (PPTase); 4'-phosphopantetheinyl transferase ffp (Bacillus subtilis), Q9F4F7; Biochemical Sfp PPTase activity, qHTS; Potency, µM, for the others: max response, negative = inhibition, most hits filed as inhibitors; 3.5% of 310,000 active; active = well fitted inhibition curve with a large enough effect; inconclusive = small, poorly fitted or top-dose-only effect, or another doubt; inactive = no such curve, though single readings can be large or run the other way;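 also: the enzyme is Sfp with the accession as filed and its product quenches rhodamine fluorescence; potency is read from the fitted curve at half-maximal effect; 0% = enzyme reaction without inhibitor and -100% = no enzyme wells; top concentration of the series not given in the record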
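With Hepes-Na pH 7.6 buffer containing 10 mM MgCl2, Sfp (15 nM) modified BHQ-2-YbbR (12.5 uM) using rhodamine-CoA (5 uM). Two reads 30 minutes apart at 525/598 nm yielded each well's rate.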
D2 PAM = Beta-Arrestin HTS for Positive Allosteric Modulators of the Human D2 Dopamine Receptor: Potentiators; AID 624464, 2012; 0.23% of 360,000 active; D(2) dopamine receptor (Homo sapiens), P14416; DiscoveRx D2 beta-arrestin cells, luminescence, 90 min; 100% = 57 uM dopamine signal; potentiation, % (no concentration beside the values); active = potentiation of 50% or more; inconclusive = 30% to 50%; inactive = 30% or less;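 also: compound concentration not given in the record; tested on top of an EC20 dose of dopamine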
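PathHunter D2 cells, attached overnight at 37 deg C, received compound in DMSO plus dopamine at EC20 (50 nM final) for 90 min at 37 deg C. Beta-arrestin recruitment was read as luminescence after 1 h with detection reagent at ambient temperature.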
ClpP mod = qHTS Assay for Activators of ClpP; purified B. subtilis ClpP, FRET peptide cleavage, 20 min; Potency, µM (doses to about 57.5 µM), for the others: top-dose activity change, negative = active; 1.9% of 340,000 active; AID 651965, 2013; active = well fitted falling curve with a large enough effect; inconclusive = small, poorly fitted or top-dose-only effect; inactive = no such curve, though single readings can be large or run the other way; also: potency is read from the fitted curve at half-maximal effect; the source files actives as falling curves though it sought activators and does not explain the sign; nearly all actives have a fitted effect of over 65% in size; many hits overshoot -100%
Target sequence (P80244 whole entry, looked up): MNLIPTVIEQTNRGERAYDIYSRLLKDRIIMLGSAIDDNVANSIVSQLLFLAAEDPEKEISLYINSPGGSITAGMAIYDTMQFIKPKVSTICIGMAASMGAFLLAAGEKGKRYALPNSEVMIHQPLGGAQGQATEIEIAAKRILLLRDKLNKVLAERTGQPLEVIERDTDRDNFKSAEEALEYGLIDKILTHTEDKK
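FRET quenching reversal measured ClpP activation: 10 microg/mL B. subtilis ClpP at pH 8 with the FRET-FV decapeptide, read at 430 nm after 320 nm excitation. The 20-min minus 0-min signal was scaled between DMSO/no-enzyme wells and ADEP (5.8 microM final).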
gsp ag = qHTS for Agonist of gsp, the Etiologic Mutation Responsible for Fibrous Dysplasia/McCune-Albright Syndrome: qHTS | gsp mutant cells, cAMP HTRF, 30 min; control for the full effect not named in the record | AID 624287, 2012 | 0.13% of 340,000 active | Potency, µM (top dose mostly 76.9 µM), inactives show at the highest dose activation (cAMP increase), hits mostly activators; active = well fitted activation curve with a large enough effect; inconclusive = small, poorly fitted or top-dose-only effect, or another doubt; inactive = no such curve, though single readings can be large or run the other way; cell line not stated here;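 also: phosphodiesterase inhibitor Ro 20-1724 added with compounds to block cAMP breakdown; potency is read from the fitted curve at half-maximal effect; nearly all actives have a fitted effect of over 60% in size; about a fifth of the inactives were tested at one dose only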
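Cells stably selected in G418 were plated at 2000/well, grown 16-24 hr, then given compounds in DMSO with the PDE inhibitor […] (300 uM solution added) for 30 min at 37C; cAMP was read by HTRF.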
Active calls of the source: *; ? = inconclusive; . = no result given; & = joins results of further samples; [ ] = another dose, or the depositor's remark. An unsorted share of the library, and some 5.1% of all compounds hit somewhere here.

The first 2 compounds, to show the layout:
No.	canonical_smiles	gsp antagonist	TRPV1 potentiator	Menin MLL FP FL	Sfp inh	D2 PAM	ClpP mod	gsp ag
1	O=C1CNC(=O)/C1=C\c1ccc(O)cc1	3%	-3	-1.6	5%	13	1.2%	-13%
2	S=C(NCCN1CCOCC1)Nc1ccc(Cl)cc1Cl	10%	7	-0.6	-10%	5	0.7%	1%[15.4 µM]

The listing, repeating the preview:
No.	canonical_smiles	gsp antagonist	TRPV1 potentiator	Menin MLL FP FL	Sfp inh	D2 PAM	ClpP mod	gsp ag
1	O=C1CNC(=O)/C1=C\c1ccc(O)cc1	3%	-3	-1.6	5%	13	1.2%	-13%
2	S=C(NCCN1CCOCC1)Nc1ccc(Cl)cc1Cl	10%	7	-0.6	-10%	5	0.7%	1%[15.4 µM]
3	CCOC(=O)NC(NC(=S)Nc1ccccc1OC)C(Cl)(Cl)Cl (stereo not given)	-17%	-8	-0.4	4%	-22	-2.2%	0%
4	COc1cccc(C(=O)Nc2cccc(NC(=O)c3ccccc3Cl)c2)c1	-22%	?	-4.7	8%	-4	0.9%	-9%
5	CCOc1ccc(-n2c(O)c(/C=N/NC(=O)C3COc4ccccc4O3)c3ccccc3c2=O)cc1 (stereo not given)	-16%	-12	?	25%	17	-22%	22%
6	COc1ccc(NC(=O)CSc2nnc(Cc3cccn3C)n2-c2ccc(OC)cc2)cc1	-15%	-1	2.3	4%	10	1.8%	0%
7	Cc1cccc(C(=O)NCC(=O)NC(C)c2ccc(-n3ccnc3)cc2)c1 (stereo not given)	6%	-8	.	.	11	-2.4%	5%[15.4 µM]
8	C=CCNC(=O)c1onc(CSc2ccc(Cl)cc2)c1C(=O)O	5%	13	0.8	5%	0	-1.0%	.
9	CC(C)Cn1cc(C(=O)NC2CCN(Cc3ccccc3)CC2)c2c3ccccc3n(C)c2c1=O	.	-21	1.4	-1%	.	.	.
10	COC(=O)C(NC(=O)CCC(=O)NC(C(=O)OC)c1ccccc1)c1ccccc1 (stereo not given)	4%	-10	3.8	18%	-6	3.1%	-11%
11	C=C(C)C1CC=C(C)C(=NNC(=O)c2ccncc2)C1 (stereo not given)	1%	.	.	.	1	.	22%
12	COc1ccc([C@H]2Cc3cc(O)cc(O)c3C(=O)O2)cc1O	-2%	.	.	.	13	-6.5%	.
13	CC(=O)N1CCC(O)(c2ccc3c(c2)OCO3)CC1	13%	5	-2.0	20%	-2	.	-11%
14	CCCCOc1ccc(C(=O)NCC(=O)NCCCn2nc(C)cc2C)cc1	11%	1	.	.	2	-0.4%	?
15	O=C(COc1ccccc1[N+](=O)[O-])Nc1cc(Cl)ccc1C(=O)O	?	4	-3.2	30%	-11	1.6%	-3%

4 entries from above, field by field.
#1 O=C1CNC(=O)/C1=C\c1ccc(O)cc1
  gsp antagonist: 3%	TRPV1 potentiator: -3	Menin MLL FP FL: -1.6	Sfp inh: 5%	D2 PAM: 13	ClpP mod: 1.2%	gsp ag: -13%
#2 S=C(NCCN1CCOCC1)Nc1ccc(Cl)cc1Cl
  gsp antagonist: 10%	TRPV1 potentiator: 7	Menin MLL FP FL: -0.6	Sfp inh: -10%	D2 PAM: 5	ClpP mod: 0.7%	gsp ag: 1%[15.4 µM]
#15 O=C(COc1ccccc1[N+](=O)[O-])Nc1cc(Cl)ccc1C(=O)O
  gsp antagonist: ?	TRPV1 potentiator: 4	Menin MLL FP FL: -3.2	Sfp inh: 30%	D2 PAM: -11	ClpP mod: 1.6%	gsp ag: -3%
#8 C=CCNC(=O)c1onc(CSc2ccc(Cl)cc2)c1C(=O)O
  gsp antagonist: 5%	TRPV1 potentiator: 13	Menin MLL FP FL: 0.8	Sfp inh: 5%	D2 PAM: 0	ClpP mod: -1.0%	gsp ag: .

The results go on:
No.	canonical_smiles	gsp antagonist	TRPV1 potentiator	Menin MLL FP FL	Sfp inh	D2 PAM	ClpP mod	gsp ag
16	O=S(=O)(Nc1ncccn1)c1ccc(F)cc1	1%	?	1.6	7%	-1	-2.6%	8%[15.4 µM]
17	CC1CCN(S(=O)(=O)c2ccc(Cl)cc2)CC1	50µM*	-17	3.0	-4%	-10	-3.7%	-2%
18	CCN(CC)S(=O)(=O)c1ccc(C(=O)Oc2cc(C)[nH]c(=O)c2[N+](=O)[O-])cc1	4%	-16	-0.6	7%	-1	1.9%	-1%
19	CCCn1c(N)c(C(=O)CSc2nnc(C3CC3)n2Cc2ccccc2)c(=O)n(C)c1=O	5%	-5	.	.	-4	1.1%	?
20	COc1cccc(-c2nnc3n2N=C(c2cc(OC)ccc2OC)CS3)c1	-15%	-6	?	-15%&-28%	-7	1.8%	1%
21	COc1ccc(CCC(=O)NCCc2ccc(Cl)cc2)cc1	-5%	-48	0.7	7%	-2	.	-8%[15.4 µM]
22	OCCn1c(SCCOc2ccccc2F)nc2ccccc21	18%	-14	2.7	14%	-13	0.1%	21%
23	N#Cc1c(N2CCN(C(=O)c3ccccc3Cl)CC2)nc(-c2ccccc2)c2c1CCCC2	?	9	8.5	-20%	-16	4.9%	?
24	OC(c1ccc(OCc2ccccc2)cc1)c1nnc(-c2ccccc2)o1 (stereo not given)	4%	2	2.9	-6%	16	14µM*	16%
25	CCc1nnc(NC(=O)CSc2nc3ccc(OC)cc3[nH]2)s1	-4%	6	-2.0	14%	2	.	-5%[15.4 µM]
26	CC(=O)/C(N=Nc1ccc(-n2ccc(C(F)(F)F)n2)cc1)=C(\C)O	-13%	-8	-2.0	7%	2	.	6%[15.4 µM]
27	COc1ccccc1CN1CC(C(=O)NCc2ccc(C)c(F)c2)CCC1=O (stereo not given)	14%	13	-1.5	6%	-12	1.1%	-28%
28	CC(=O)c1cccc(NC(=S)NC(=O)c2ccc(Br)cc2)c1	4%	4	?	-22%	-20	1.3%	14%
29	O=S(=O)(Nc1cccc2cccnc12)c1ccc2ccccc2c1	.	-2	-1.4	-3%	.	.	.
30	Nc1cccc2c1C(=O)N(CC(=O)NC13CC4CC(CC(C4)C1)C3)C2=O	-4%	4	?	18%	-3	11%	4%
31	O=C(O)CSc1c(-c2ccccc2)c2cc(Cl)ccc2[nH]c1=O	-27%	-15	-1.8	71µM*	-8	-2.5%	-3%
32	CCCCn1c(N)c(NCC(C)C)c(=O)[nH]c1=O	9%	3	?	5%	-3	-1.4%	27%[15.4 µM]
33	COc1ccc(-c2nnc(SC)nc2-c2ccc(OC)c([N+](=O)[O-])c2)cc1[N+](=O)[O-]	?	.	.	.	-13	.	-7%[15.4 µM]
34	O=C(CCNC(=O)C1CCN(S(=O)(=O)c2ccc(F)cc2)CC1)NCc1ccncc1	26%	-2	2.0	20%	-4	0.7%	?
35	COc1ccc(OC)c(S(=O)(=O)N2CCC3(CC2)OCCN3S(=O)(=O)c2cccs2)c1	-2%	3	.	.	21	-3.5%	-39%[inhibitor]
36	O=C(Nc1cccc([N+](=O)[O-])c1)C12CC3CC(C1)CC(n1cnc([N+](=O)[O-])n1)(C3)C2	-13%	-5	1.1	-2%	-16	-11%	1%
37	COc1ccc(-n2nc(C(=O)NCC(=O)Nc3cc(C)ccc3OC)c3ccccc3c2=O)c(OC)c1	0%	2	-12	?	-1	.	?
38	Cc1nc2ccc(NC(=O)COc3cccc(F)c3)cc2s1	6%	17	-3.2	18%	0	1.8%	-44%[inhibitor]
39	Cc1ccc(-c2c(C(=O)O)c(C(=O)O)c3n2CSC3)cc1	3%	-3	9.3	4%	0	-15%	4%
40	COc1ccccc1CNC(=O)C(=O)NCC(c1ccco1)N1CCOCC1 (stereo not given)	0%	11	-1.6	19%	-2	-0.1%	-18%
41	O=c1cc(-c2ccc(O)cc2)oc2c(C3O[C@H](CO)[C@@H](O)[C@H](O)[C@H]3O)c(O)cc(O)c12 (stereo not given in full)	5%	-6	.	.	-7	1.3%	.
42	Oc1ccccc1N1CCN(C(c2ccccc2)c2ccccc2)CC1	-10%	-1	-0.9	7%	-3	.	2%[15.4 µM]
43	O=C(CCNS(=O)(=O)c1ccccc1F)N1CCN(Cc2ccccc2)CC1	15%	5	.	.	-1	1.5%	-1%
44	c1csc(C2C3=C(Nc4ncnn42)c2ccccc2OC3)c1 (stereo not given)	8%	-6	4.7	50µM*	-19	?	31%
45	C=CCOC(=O)/C=C/C(=O)NC(N)=O	8%	4	6.8	20µM*	-17	1.6%	31%
46	CCN(CC)S(=O)(=O)c1ccc(NC2=NS(=O)(=O)c3ccccc32)cc1	14%	8	1.6	7%	-11	-0.7%	-21%
47	CCN(CC)C(=O)[C@H]1C[C@H](CC(=O)NCc2cccc(C(F)(F)F)c2)C(=O)N2CCc3c([nH]c4cc(CCC(=O)N(C)C)ccc34)[C@]12C	?	.	.	.	0	-0.7%	.
48	CCC(=O)Nc1nc(-c2cc([N+](=O)[O-])cs2)cs1	-27%	-17	-1.3	8%	-8	-1.2%	-52%[inhibitor]
49	CCN(CC)C(=O)c1sc2c(c1C)c(=O)n(-c1ccc(OC)cc1OC)c(=O)n2CC(=O)c1ccccc1	-27%	5	3.5	14%	-10	0.9%	-32%
